Screens as filed in PubChem.
GIV-Gai inh = inhibitors of GIV peptide binding to Galpha-i3, primary screen, biochemical, fluorescence polarization, FITC-GIV GBA peptide, rat Galphai3; 90 min; active compounds read low; scaled: aluminum fluoride 0%, vehicle 100%; percent of control (FP), % (concentration not given with the values); 210,000 tested, 0.42% active; AID 1224905, 2016;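 active = replicate mean at 85% of control or lower, very high polarization wells dropped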;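 note: wells of about 15 µL received 100 nL stock; the first replicate is given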
Target sequence (P08753 whole entry, looked up): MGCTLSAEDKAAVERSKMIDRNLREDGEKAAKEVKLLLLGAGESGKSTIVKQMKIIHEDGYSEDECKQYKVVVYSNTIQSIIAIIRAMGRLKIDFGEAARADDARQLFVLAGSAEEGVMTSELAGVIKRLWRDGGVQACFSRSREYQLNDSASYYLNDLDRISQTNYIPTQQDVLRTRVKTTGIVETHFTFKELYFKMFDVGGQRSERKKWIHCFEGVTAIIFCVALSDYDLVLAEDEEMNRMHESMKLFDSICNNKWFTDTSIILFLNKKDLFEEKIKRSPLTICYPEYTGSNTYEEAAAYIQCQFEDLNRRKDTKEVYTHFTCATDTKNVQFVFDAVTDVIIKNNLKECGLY
HCMV NEC inh = inhibitors of HCMV UL50-UL53 interaction, biochemical, HTRF. HCMV UL50-UL53 nuclear egress complex (human cytomegalovirus). normalized percent inhibition. inhibition, % (test concentration not listed). 190,000 tested, 0.15% active;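 active = both replicates at 50% or more, plus weaker picks with an unusually low signal ratio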;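 note: stock transfer was 100 nL into about 20 µL; 0% = negative control wells and 100% = wells with untagged competitor protein; inactives centre near -12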
Sa growth 42C = S. aureus growth inhibition at 42 and 30 °C, primary screen, LtaS inhibitor project, RN4220, two temperatures; OD600, 20 h, 42 °C; active compounds read low; relative growth, % (no concentration beside the values); 170,000 tested, 0.53% active;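 active = growth at 42 °C up to 50% and 20 or more points under that at 30 °C, or under 10% at both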;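 note: 300 nL library stock went into each well; scaled to the means of positive and negative controls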
Sa growth 42C second temp = recorded beside Sa growth 42C, whose call it bears; relative growth, %; measured here: growth at 30 °C;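 optical density after 20 h as mean of two plates; 100% = untreated growth and lower means inhibition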
Active calls of the source: *; . = no result given; & = joins results of further samples.

1: Cc1c(CCC(=O)O)c(=O)oc2cc3occ(-c4ccc(Br)cc4)c3cc12
2: O=C(NCc1ccccn1)C1CCCCC1
3: CN(CCCNC(=O)c1cc(-c2ccccn2)nc2ccccc12)Cc1ccccc1
4: COC(=O)Cc1ccc2c3ccccc3n(C)c2c1
5: O=C(c1cc2ccc3cccnc3c2[nH]1)N1CCOCC1
6: CC1CCC(C(C)C)C(NCc2ccccc2)C1 (stereo unspecified)

assay / entry,1,2,3,4,5,6
GIV-Gai inh,105,105,112,105,96,102
HCMV NEC inh,-26,-22,-31,17,-8,-39
Sa growth 42C,61,106,.,165,.,80
Sa growth 42C second temp,6,95,.,122,.,85

7: C=CCNC(=O)C1CC(c2cc(OC)ccc2OC)=NO1 (stereo unspecified)
8: O=C(CCCn1nc(-c2ccccc2)c2cc(Cl)ccc21)N1CCOCC1
9: Cc1ccccc1NC(=O)c1ccc(N(Cc2ccccc2)S(C)(=O)=O)cc1
10: CC1(C)CC(=O)C2=C(C1)N=C1c3ccccc3C(=O)C1C2c1cccc(Br)c1 (stereo unspecified)
11: COc1ccc(-c2ccc(=O)[nH]n2)cc1S(=O)(=O)Nc1cc(C)c(Br)cc1C
12: COc1ccc(CCNC(=O)c2cc3c(=O)oc4ccc(C)cc4c3s2)cc1OC

assay / entry,7,8,9,10,11,12
GIV-Gai inh,103,102,103,107,102,98
HCMV NEC inh,.,.,-67,.,-55,-15
Sa growth 42C,97,87,81,85,.,109
Sa growth 42C second temp,96,58,86,66,.,85

13: NS(=O)(=O)c1cccc(C(=O)Nc2ccc(F)cc2)c1
14: CCOC(=O)c1ccc(N2CCN(c3cccc(Cl)c3)CC2)c(NC(=O)Nc2ccc(Cl)cc2)c1
15: O=C1CSC(=S)N1CCc1ccc(Cl)cc1
16: CCOC(=O)C1=C(C)N=c2s/c(=C\c3cc([N+](=O)[O-])ccc3N3CCOCC3)c(=O)n2C1c1cc(OC)ccc1OC (stereo unspecified)
17: Cc1ccc(S(=O)(=O)CCC(=O)Nc2ccc3c(c2)nc2n3CCCCC2)cc1
18: CC1=C(c2ccc(C)cc2)S(=O)(=O)N(CC(=O)N2CCN(c3ccccn3)CC2)C1=O

assay / entry,13,14,15,16,17,18
GIV-Gai inh,105,104,104,104,.,102
HCMV NEC inh,-31,.,-32,-17,-21,.
Sa growth 42C,100,62,89,.,96,87
Sa growth 42C second temp,71,71,87,.,88,86

19: O=C(NC=Nc1cccnc1)C1COc2ccccc2O1 (stereo unspecified)
20: C=CCn1c(-c2ccncc2)n[nH]c1=S
21: O=C(CCCSc1nc2ccccc2[nH]1)N1CCN(S(=O)(=O)Cc2ccccc2)CC1
22: COc1ccc(NC(=O)c2ccc(CN3C(=O)CSc4ncccc43)cc2)cc1OC
23: CC(=O)OCC1C(COC(C)=O)C1(Cl)Cl (stereo unspecified)
24: CCOC(=O)c1c(-c2ccc(C)cc2)csc1NC(=O)c1cc(=O)c2cc(Cl)ccc2o1

assay / entry,19,20,21,22,23,24
GIV-Gai inh,.,111,.,109,.,101
HCMV NEC inh,-26,-2,-2,7,-9,22
Sa growth 42C,79,97,73,.,101,94
Sa growth 42C second temp,89,90,90,.,95,94

25: COc1ccc(NS(=O)(=O)c2c(C)nc3scc(C)n3c2=O)cc1
26: CCOC(=O)CSc1ncnc2c1cnn2-c1ccccc1
27: O=C(COc1ccc(Br)cc1)Nc1ccc(C(=O)OC2CCCCC2)cc1
28: Cc1onc(-c2c(F)cccc2Cl)c1C(=O)c1ccccc1O
29: CCOC(=O)N1CCN(Cc2nc3cc(NC(=O)c4cccc(C)c4)ccc3n2C(C)C)CC1
30: C=Cc1ccc(CSc2nnc(C)n3c2cc2occc23)cc1

assay / entry,25,26,27,28,29,30
GIV-Gai inh,109,103,104,105,98,102
HCMV NEC inh,-2,-8,-20,-5,1,.
Sa growth 42C,111,91,99,79,95,88
Sa growth 42C second temp,90,88,94,81,78,62

31: C1CCC(N2CCN(C3CCCC3)CC2)CC1
32: COc1cc(OC)cc(-c2noc(CSc3ccc(-c4ccc(Br)cc4)nn3)n2)c1
33: N#CCc1c(C#N)c(N)nc(N2CCc3ccccc32)c1C#N
34: CCNc1nc(NCC)n2c(SCC(=O)c3ccc(C(C)C)cc3)nnc2n1
35: CC1Cc2ccccc2N1C(=O)c1ccc2snnc2c1 (stereo unspecified)
36: CCn1c(CNC(C)=O)nc2ccccc21

assay / entry,31,32,33,34,35,36
GIV-Gai inh,.,106,.,101,104,100
HCMV NEC inh,-14,-16,35*,-21,-7,-17&-2
Sa growth 42C,90,.,94,.,101,100
Sa growth 42C second temp,89,.,96,.,84,93

37: COc1ccc(CNc2ncc3c(n2)CC(c2ccccc2)CC3=O)cc1 (stereo unspecified)
38: O=C(NCC1CCCO1)c1ccc(N2CC3CC(C2)c2cccc(=O)n2C3)c(NS(=O)(=O)c2ccc(F)cc2)c1 (stereo unspecified)
39: COc1ccc(-c2cc(C(=O)NCC(c3ccccc3)N(C)C)no2)cc1 (stereo unspecified)
40: O=C(CCCN1C(=O)c2ccccc2C1=O)Nc1cccc2nsnc12
41: Cc1cc(C)c(S(=O)(=O)NCCn2c(-c3ccc(F)cc3)nc3cccnc32)c(C)c1
42: CC1CCCCN1S(=O)(=O)c1coc(C(N)=O)c1 (stereo unspecified)

assay / entry,37,38,39,40,41,42
GIV-Gai inh,102,108,106,101,112,103
HCMV NEC inh,-12,-20,-2,10,1,3
Sa growth 42C,.,93,.,.,.,79
Sa growth 42C second temp,.,92,.,.,.,95

43: Cc1ccc(-c2onc(C)c2C)cc1S(=O)(=O)Nc1cccc(Cl)c1C
44: CN(C)/C=C(\C#N)S(=O)(=O)c1ccccc1
45: CN(C)CCN1C(=O)C2C3c4ccccc4C(c4ccccc43)C2C1=O (stereo unspecified)
46: CN(C(=O)COC(=O)c1cccnc1Cl)C1CCCCC1
47: Cc1nnc(N2CCCC(C(=O)Nc3cc(F)ccc3F)C2)c2nn(-c3ccccc3)c(C)c12 (stereo unspecified)
48: O=C(c1cccc(NC2=NC3CS(=O)(=O)CC3S2)c1)N1CCN(C(=O)c2ccco2)CC1 (stereo unspecified)

assay / entry,43,44,45,46,47,48
GIV-Gai inh,101,110,100,.,110,103
HCMV NEC inh,.,23,-19,-8,.,-13
Sa growth 42C,100,97,101,125,111,102
Sa growth 42C second temp,65,96,76,90,89,89

49: COc1ccc(NC(=O)c2ccoc2COc2ccc(C)cc2)cc1
50: COc1cccc(NC(=O)CSc2ncc3c(n2)-c2ccccc2N(C)S3(=O)=O)c1
51: CCOC(=O)c1c(CN2CCCC2)n(C)c2cc(Br)c(OC)cc12
52: CCc1nn(C)c(N)c1C
53: Cc1[nH]c2cccc(C(=O)O)c2c1C
54: Cc1ccc(C2(C)NC(=O)N(CC(=O)C(C)(C)C)C2=O)cc1 (stereo unspecified)

assay / entry,49,50,51,52,53,54
GIV-Gai inh,107,110,.,105,104,.
HCMV NEC inh,.,-15,-4,-8,14,15
Sa growth 42C,128,101,97,113,98,114
Sa growth 42C second temp,86,89,87,89,105,102

55: CCS(=O)(=O)Nc1ccc(N2CCCCC2)cc1
56: COc1ccc(NC(=O)c2ccc(C)c(I)c2)cc1OC
57: Nc1nc2c(cnn2CCc2ccccc2)c2nc(-c3ccco3)nn12
58: Cc1cc(C)n2nc(CN(c3ccc(F)cc3)S(C)(=O)=O)nc2n1
59: Cc1ccccc1NC(=O)c1sc2nc3n(c(=O)c2c1C)CCC3
60: N=C1/C(=C\c2ccc(-c3cccc(C(=O)O)c3)o2)C(=O)N=C2SC(N3CCCCC3)=NN12

assay / entry,55,56,57,58,59,60
GIV-Gai inh,.,104,96,105,99,98
HCMV NEC inh,-18,.,13&-18,11,-6,-93
Sa growth 42C,82,93,.,.,100,94
Sa growth 42C second temp,92,82,.,.,96,65

Among those listed so far, these contain a thiophene ring, fused or not:
12: COc1ccc(CCNC(=O)c2cc3c(=O)oc4ccc(C)cc4c3s2)cc1OC
24: CCOC(=O)c1c(-c2ccc(C)cc2)csc1NC(=O)c1cc(=O)c2cc(Cl)ccc2o1
59: Cc1ccccc1NC(=O)c1sc2nc3n(c(=O)c2c1C)CCC3

assay / entry,12,24,59
GIV-Gai inh,98,101,99
HCMV NEC inh,-15,22,-6
Sa growth 42C,109,94,100
Sa growth 42C second temp,85,94,96

Continuation.
61: COC(=O)c1ccc(NC(=O)CN2CCCN(Cc3ccc(Cl)cc3)S2(=O)=O)cc1
62: CC[C@H](C)NC(=O)CCc1nnc2n(CC(C)C)c(=O)c3sccc3n12
63: CCC(=O)N1c2ccccc2NC2=C(C(=O)CC(C)(C)C2)C1c1cc(OC)c(OC)c(OC)c1 (stereo unspecified)
64: O=S1(=O)c2ccccc2NC(c2ccccc2Cl)N1Cc1ccccc1Cl (stereo unspecified)
65: COc1ccc(Cn2ccn(Cc3cccc(C)c3)c(=O)c2=O)cc1
66: COC(=O)Cn1c(=O)c2cccn2c2ccc(F)cc21

assay / entry,61,62,63,64,65,66
GIV-Gai inh,99,95,105,104,100,102
HCMV NEC inh,.,-18,-15,-9,5,3
Sa growth 42C,86,.,.,.,116,104
Sa growth 42C second temp,92,.,.,.,108,93

67: CCCC(=O)Nc1sc2c(c1C#N)CC(C)(C)NC2(C)C
68: Cc1ccc(CN2CCN(N=Cc3ccc(Br)s3)CC2)c(C)c1
69: Cc1ccc(-c2c(C(F)(F)F)nn3c(N(C)C)cc(C)nc23)cc1
70: C1=C(N2CCOCC2)Cc2ccccc21
71: COc1ccc(/C(N)=N/OC(=O)COc2ccccc2C)cc1OC
72: CCc1nn2c(=O)cc(COC(=O)c3ccccc3NC(=O)C3CCCCC3)nc2s1

assay / entry,67,68,69,70,71,72
GIV-Gai inh,.,101,97,97,104,103
HCMV NEC inh,-3,-29,-7,-22,7,.
Sa growth 42C,124,87,.,96,98,76
Sa growth 42C second temp,87,85,.,82,78,83

73: CC(=O)Oc1cccc(C2C3=C(CC(C)(C)CC3=O)Nc3ccccc3N2C(=O)c2ccccc2)c1 (stereo unspecified)
74: CCOC(=O)N1CCN(S(C)(=O)=O)CC1
75: CCOC(=O)N1CCc2c(sc3c2C(=O)NC(c2ccccc2)N3)C1 (stereo unspecified)
76: O=C(CCc1nc(-c2ccccc2)no1)Nc1ccccc1
77: Cc1cc(=O)[nH]c(SCC(=O)Nc2c(C)n(C)n(-c3ccccc3)c2=O)n1
78: CC(C)c1ccc(NC(=O)CN2C(=O)c3ccccc3Sc3ccc(C(=O)N4CCCC4)cc32)cc1

assay / entry,73,74,75,76,77,78
GIV-Gai inh,103,106,105,106,.,101
HCMV NEC inh,-17,-20,.,.,-26,.
Sa growth 42C,.,89,87,99,86,88
Sa growth 42C second temp,.,85,83,72,88,81

79: CC(C(=O)Nc1ccc(S(N)(=O)=O)cc1)N1C(=O)CCC1=O (stereo unspecified)
80: CCN(CC)Cc1c(O)ccc2oc(C)c(C(=O)Nc3ccccc3C)c12
81: COC(=O)c1cc(S(=O)(=O)N(C)CC(=O)NCc2ccccc2Cl)cn1C
82: CNc1ccccc1C(=O)N/C(N)=N\c1nc(C)c2ccccc2n1
83: CCCCn1c(=N)c(S(=O)(=O)c2ccc(Cl)cc2)cc2c(=O)n3cccc(C)c3nc21
84: CC(C)CN(C(=O)c1ccc(=O)n(C)n1)c1nc2ccccc2s1

assay / entry,79,80,81,82,83,84
GIV-Gai inh,107,102,102,103,106,.
HCMV NEC inh,-22,-10,-12,-14,-39,-8
Sa growth 42C,96,98,.,88,119,90
Sa growth 42C second temp,87,85,.,83,89,99

85: Cc1sc(-c2noc(C3CC3)n2)cc1S(=O)(=O)Nc1ccc(Cl)cn1
86: O=C(/C=C/c1ccc(O)cc1)c1ccc(O)cc1O
87: CC(C)N1CCn2c(nc3ccccc32)C1
88: c1ccc(-c2csc(-c3cccs3)n2)cc1
89: O=C(NC1CCS(=O)(=O)C1)c1sc2ccccc2c1Cl (stereo unspecified)
90: Cc1ccc(C2=C/C(=C/c3ccc(-c4cccc(C(=O)O)c4)o3)C(=O)O2)cc1

assay / entry,85,86,87,88,89,90
GIV-Gai inh,110,111,94,101,96,329
HCMV NEC inh,-7,-16,-25,-16,-32,.
Sa growth 42C,.,.,.,53,96,92
Sa growth 42C second temp,.,.,.,72,85,25

91: CCc1ccc(OC(C)C(=O)N2CCC(c3nc4ccccc4o3)CC2)cc1 (stereo unspecified)
92: O=C(COC(=O)CSc1ncnc2sccc12)Nc1nnc(-c2ccccc2)o1
93: COc1cccc2c1c(NC(=O)Nc1ccc(F)cc1F)nn2C
94: O=C(Nc1ccccc1)c1ccc(=O)[nH]n1
95: CNC(=O)C1CCN(c2nc3ccccc3n3cccc23)CC1
96: CCOc1ccc(NC(=O)CCC(=O)N2CCSc3ccccc32)cc1
97: COc1ccc(-n2nc(C(=O)NCC(=O)Nc3cccc(OC)c3)c3ccccc3c2=O)cc1

assay / entry,91,92,93,94,95,96,97
GIV-Gai inh,102,.,112,101,107,104,101
HCMV NEC inh,-9,-12,-27,-56,.,.,.
Sa growth 42C,104,119,87,89,115,84,120
Sa growth 42C second temp,80,78,90,80,86,71,88

Entries of single compounds, quoted from the list. Values in the order: GIV-Gai inh, HCMV NEC inh, Sa growth 42C, Sa growth 42C second temp
CCOc1ccc(NC(=O)CCC(=O)N2CCSc3ccccc32)cc1 as listed: 104, ., 84, 71
CNC(=O)C1CCN(c2nc3ccccc3n3cccc23)CC1 as listed: 107, ., 115, 86
